# Source: PubChem BioAssay (National Center for Advancing Translational Sciences (NCATS))
# 2A firefly – FMDV 2A StopGo reporter, firefly signal | AID 1745856 | HEK cells with a luciferase reporter of 2A StopGo recoding | hit rate 0.23% among 120,000 | Potency, µM (highest dose often 57.5 µM), inactives show at the top dose signal change, negative = less light; active = well fitted falling curve with a large enough effect; inconclusive = small, poorly fitted or top-dose-only effect; inactive = no such curve, though single readings can be large or run the other way; note: nearly all actives have a fitted effect of over 60% in size; overnight with compound
# 2A Renilla – FMDV 2A StopGo reporter, Renilla signal. HEK cells with a luciferase reporter of 2A StopGo recoding. Potency, µM (highest dose often 57.5 µM), for the others: top-dose signal change, negative = less light. hit rate 0.32% among 120,000. AID 1745857; active means well fitted falling curve with a large enough effect; inconclusive means small, poorly fitted or top-dose-only effect; inactive means no such curve, though single readings can be large or run the other way; note: nearly all actives have a fitted effect of over 55% in size; overnight with compound
# An asterisk follows results filed as active; ? = inconclusive; & = joins results of further samples; [ ] = remark or other dose. % is set by controls: 0 for no effect and ±100 for the full control effect; potency is the fitted concentration of half-maximal effect.
SMILES,2A firefly,2A Renilla
O=C(Oc1c2c3c(noc3c3ccccc13)C(Oc1ccc(F)cc1)=CC2=O)c1ccc(F)cc1,131%[activator],-9%
Cc1ccn(C(=O)C2CCN(C(=O)c3ccc(F)cc3)CC2)c(=NC2CCCCC2)c1,1%,5%
COC(=O)C1CCN(C(c2ccccc2Cl)c2sc3nc(-c4ccco4)nn3c2O)CC1 (stereo not given),16%,66%[activator]
COC(=O)c1sc(=S)n(-c2cc(Cl)ccc2C)c1N,19%,23%
CCOc1ccc(NC(=O)C(Cc2ccccc2)NS(=O)(=O)c2ccc3c(c2)oc(=O)n3C)cc1 (stereo not given),-20%,-22%
COc1cc(NS(=O)(=O)c2ccc3c(c2)CCCN3C(C)=O)cc(OC)c1OC,?,92%[activator]
COc1ccc(-c2nc3ccccc3o2)cc1NC(=O)c1ccc(N2CCC(C)CC2)c([N+](=O)[O-])c1,67%[activator],-1%
Cc1ccc2nc(CN3CCN(S(=O)(=O)c4ccc(C)c(C)c4)CC3)oc2c1,-21%,-10%
FC(F)CN1CCNCC1,12%,-1%
CCOC(=O)c1c(NC(=O)c2nc3nc(C)cc(C(F)F)n3n2)sc2c1CCC(C)C2 (stereo not given),-2%,1%
O=C(NCCc1ccccc1)c1cc(-c2cccnc2)nc2ccccc12,29%,38%[activator]
CNC(=O)c1c(NC(=O)c2nc(SCc3ccc(C)cc3)ncc2Cl)sc2c1CCCC2,-24%,-15%
NC(=O)CSc1oc(-c2ccco2)nc1S(=O)(=O)c1ccc(Br)cc1,21%,-1%
CCOC(=O)c1c(C)[nH]c(C)c1S(=O)(=O)N1CCCC(C(=O)NCc2cccc(C)c2)C1 (stereo not given),-18%,33%[activator]
CCN1CCN(C(c2cccc(F)c2)c2c(O)cc(C)n(Cc3ccco3)c2=O)CC1 (stereo not given),-11%,27%
COc1ccc(CCNC(=O)CSc2ccc(-c3ccccn3)nn2)cc1OC,1%,-14%
CCN(Cc1ccccc1)Cc1c(O)ccc2oc(C)c(C(=O)Nc3ccc(C)cc3C)c12,-24%,-17%
CC1c2cc3c(cc2CCN1S(=O)(=O)c1cc(Cl)ccc1Cl)OCCCO3 (stereo not given),?,?
O=C(NC1CCCC1)c1ccc2ccccc2c1,0%,19%
Cc1cccc(-n2ccnc2SC2CCCCC2=O)c1C (stereo not given),2%,13%
Cc1cccc2nc(-c3c(-c4ccc(Br)cc4)n(C)c(=O)n(C)c3=O)cn12,24%,-5%
Cc1cccc(N2CCN(C(=O)Cn3cnc4sc(C)c(S(=O)(=O)N5CCN(c6ncccn6)CC5)c4c3=O)CC2C)c1 (stereo not given),20%,28%
Cc1cccc(NC(=O)c2ccc(F)c(S(=O)(=O)NCc3ccc4c(c3)OCO4)c2)c1,-20%,113%[activator]
Cc1ccc(C2C=C(c3ccc(F)cc3)Nc3nc(CCCO)nn32)cc1 (stereo not given),-10%,-2%
CN(CC(=O)Nc1ccc(Cl)cc1)Cc1cc(F)cc2c1OCOC2,-18%,?
O=C(Cc1c[nH]c2ccccc12)N1CCN(S(=O)(=O)c2cc(F)ccc2F)CC1,5%,20%
O=C(Nn1ccc2c(nnc3c(-c4ccccc4)cnn32)c1=O)c1ccncc1,-2%,-4%
O=C1Cc2cc(-c3csc(Nc4ccccc4F)n3)ccc2N1,116%[activator],-19%
Cc1noc(-c2ccc(-c3noc(-c4ccc(C(F)(F)F)cc4)n3)cc2)n1,24%,-10%
CCOc1ccccc1Nc1ncnc2c1c(-c1ccccc1)cn2-c1ccc(OC)cc1,-8%,-8%
O=S(=O)(c1cc(Cl)ccc1Cl)N1CCN(C/C=C/c2ccccc2)CC1,4%,16%
CCCCOC(=O)c1c(N)n(-c2ccc(OC)cc2OC)c2nc3ccccc3nc12,-8%,0%
COc1ccc(N(C)C(=O)CCS(=O)(=O)c2cccc3nsnc23)cc1,-9%,-5%
Cc1ccc(OCc2cc(=O)n3ccsc3n2)c(NC(=O)c2ccco2)c1,-18%,-12%
CCCN(CCC)C(=O)c1cc(-c2ccc3c(c2)OCO3)nc2ccccc12,?,-23%
CCc1ccccc1N(CC)C(=O)C1CCN(c2ncnc3c2nc2n3CCCCC2)CC1,-23%,7%
COc1cc(-c2nnc(SCC(=O)Oc3ccccc3)o2)cc(OC)c1OC,-5%,-18%
COc1ccc(C(CNC(=O)c2ccc(C)cc2)N2CCOCC2)cc1 (stereo not given),-7%,3%
CC1CCCN(S(=O)(=O)c2cc(C(=O)OCc3nc4ccccc4o3)ccc2Cl)C1 (stereo not given),22%,-4%
O=c1cc(CN2CCN(c3ccccc3)CC2)c2cc(Cl)c(O)cc2o1,-4%&12%,-6%&-9%
Cc1ccc(C2/C(=C(\O)c3ccc4c(c3)OCCO4)C(=O)C(=O)N2CCc2ccccc2)cc1 (stereo not given),178%[activator],29%
O=C(OCc1ccc(-c2ccccc2)cc1)c1cnccn1,1%,-12%
Cc1ccc(CNS(=O)(=O)c2ccc3[nH]c4c(c3c2)CCCC4)cc1,-3%,75%[activator]
CCc1ccc(C2=CC(c3cccc(C)c3)n3c(nc4ccccc43)N2)cc1 (stereo not given),56%[activator],-12%
CC(=O)c1cccc(NCc2ccccc2-c2nnc(-c3ccccc3)o2)c1,90%[activator],194%[activator]
CCOc1ccccc1NC(=O)CN(C)S(=O)(=O)c1ccc2ccccc2c1,-13%,17%
NC(=O)C1CCN(C(=O)COC(=O)c2cc3ccccc3[nH]2)CC1,124%[activator],2%
CCc1ccccc1Nc1cc(C(=O)NCc2ccc(C)cc2)c2ccccc2n1,-24%,23%
Cc1nc2cc(NC(=O)c3ccc(C)c(F)c3)ccc2o1,29%,?
Cc1cccc(NC(=O)C2(C#N)CCCC2)c1C,-6%,0%
Cn1nc(C(=O)Nc2ccc(S(=O)(=O)C(F)F)cc2)c2ccccc2c1=O,118%[activator],47%[activator]
N#CCCn1cc(C(=O)Nc2ccccc2)c(-c2cccs2)n1,5%,25%
CC(C)N(Cc1ccccc1)C(=O)CN1C(=O)COc2ccc(S(=O)(=O)N3CCCCCC3)cc21,-14%,5%
COc1ccc(N2CCN(C(=O)c3cc4c(-c5ccccc5F)nn(C)c4s3)CC2)cc1,?,50%[activator]
CC(=O)c1cccc(NC(=O)Cc2c(C)c3ccc(O)cc3oc2=O)c1,-2%,-4%
CCOc1ccc(-n2ccc(=O)c(C(=O)Nc3cc(C(F)(F)F)ccc3Cl)n2)cc1,3%,0%
CCOC(=O)c1c(NC(=O)c2cc(CC(C)C)on2)sc(C(C)=O)c1C,36%[activator],-7%
COc1ccc(/C=C/C(=O)c2ccc(C)cc2)cc1OC,0%,?
Cc1cc(C(F)(F)F)nc2ccccc12,0%,19%
CC(NC(=O)CC12CC3CC(CC(C3)C1)C2)C1CC2CCC1C2 (stereo not given),-11%,-2%
# (more compounds)
SMILES,2A firefly,2A Renilla
Cc1ccc2c(COC(=O)CCCN=C3NS(=O)(=O)c4ccccc43)cc(=O)oc2c1C,21%,1%
Cc1ccc(C(=O)Nc2nc(C34CC5CC(CC(C5)C3)C4)cs2)cc1,-5%,?
CCOc1ccccc1NC(=O)C(NS(=O)(=O)c1cccc2nsnc12)c1ccccc1 (stereo not given),-16%,87%[activator]
O=C(C1COc2ccccc2O1)N1CCN(c2nc3ccc(F)cc3s2)CC1 (stereo not given),-7%,-18%
Cc1cc(C(=O)NCc2ccccc2C)c2c(C)nn(-c3cccc(F)c3)c2n1,0%,5%
CCNC(=O)NC(=O)CN(C)Cc1ccco1,3%,4%
Cc1ccc(C)c(NC(=O)Nc2ccc(-c3cn4cccnc4n3)cc2)c1,9%,1%
CCOc1ncccc1CNC(=O)c1cc2cc(OC)ccc2nc1C,-14%,-3%
N#Cc1cccc(NC(=O)CSc2nnc(-c3ccc(F)cc3)n2CC2CCCO2)c1 (stereo not given),4%,67%[activator]
OCCN1CCN(c2ncnc3scc(-c4ccc(F)cc4)c23)CC1,-16%,-20%
O=C(Nc1cccc(Cl)c1)c1cc(-c2ccc3c(c2)OCO3)on1,171%[activator],-4%
CC(NC(=O)C1CCCC1)c1ccc(Cl)c(Cl)c1 (stereo not given),7%,4%
Cc1cc(Nc2cccc(C(F)(F)F)c2)nc2ccc(NC(=O)c3cccnc3)cc12,?,?
CCN(CC)c1ccc(NC(=O)CCCn2cnc3c2c(=O)n(C)c(=O)n3C)cc1,-1%,-10%
CCC(C)NC(=O)CCc1ccc(C#N)cc1 (stereo not given),-4%,-2%
FC(F)(F)c1ccccc1N/N=C1/CCCc2ccccc21,14%,11%
Cc1cc(O)ccc1NC(=O)COc1ccc2c(=O)c(-c3ccccc3)c(C)oc2c1,?,?
Cc1ccc(CNC(=O)c2ccccc2NC(=O)c2nsc3ccccc23)cc1,112%[activator],20%
Cc1nc2nc(SCC(=O)Nc3cccc(Cl)c3)nn2c(C)c1Cc1ccccc1,2%,-10%
CC1=CC(=O)C2C3C=CC(C3)C2/C1=N/OC(=O)c1ccc(C)cc1 (stereo not given),-6%,-10%
Cc1ccc2c(c1)c1c(c(=O)n(-c3ccccc3)c(=O)n1Cc1ccccc1C)n2C,-2%,-8%
COc1ccc(/C=C(\C#N)C(=O)C(C)(C)C)cc1Br,-3%,-3%
Cc1ccc(S(=O)(=O)N(C)CCc2noc(-c3ccccc3F)n2)c2nsnc12,14%,5%
O=c1nc2c(-c3ccc(F)cc3Cl)n[nH]n2c2ccccc12,48%[activator],-5%
O=C(Nc1ccc(-c2nc3ccccc3o2)cc1)c1cc([N+](=O)[O-])ccc1Cl,121%[activator],-11%
COCC(=O)N1CCN(Cc2nc(C(C)(C)C)no2)CC1,-6%,-3%
N#CCCN1CCN(C(C(=O)O)c2cn(CCC(=O)O)c3cc(F)ccc23)CC1 (stereo not given),-7%,-13%
COc1ccccc1NC(=O)CN1C(=O)c2cccc3cccc1c23,5%,-9%
CCN(CC)S(=O)(=O)c1ccc(NC(=O)CN(c2ccccc2)S(=O)(=O)N(C)C)cc1,-19%,24%
Cc1cc(C)c(C(=O)COC(=O)c2ccc(N3CCCC3=O)cc2)c(C)c1,-7%,-5%
COc1cccc(CNC(=O)c2cccc(N3CCCN(Cc4ccc(C)cc4)C3=O)c2)c1,?,?
N=C(N)SCc1ccc(F)cc1,26%,33%
CCSc1nc2n(n1)C(c1ccc(CC)cc1)C(C(=O)Nc1ccccc1OC)=C(C)N2 (stereo not given),-10%,?
COc1ccccc1-c1cc(C(=O)O)c2ccc(C)c(C)c2n1,0%,1%
CC(C)(C)CC(=O)Nc1ccc(C(N)=O)c(Cl)c1,26%,7%
O=C(NNC(=O)C1CCC(c2ccccc2)CC1)c1ccc(Br)cc1 (stereo not given),8%,3%
Cc1ccc(NC(=O)Cn2c(C)nc3c(sc4ccccc43)c2=O)cc1F,-6%,-12%
Cc1oc(-c2ccccc2)nc1CC(=O)NC1CCCCNC1=O (stereo not given),0%,-8%
Cc1ccc(CNC(=O)c2sc3nc(C)cc(C)c3c2-n2cccc2)cc1,-6%,-7%
CCOCCn1c(NCCOC)nc2c1c(=O)[nH]c(=O)n2C,-2%,-5%

# 14 neighbouring compounds out of the list so far, quoted:
SMILES,2A firefly,2A Renilla
N#CCCN1CCN(C(C(=O)O)c2cn(CCC(=O)O)c3cc(F)ccc23)CC1 (stereo not given),-7%,-13%
COc1ccccc1NC(=O)CN1C(=O)c2cccc3cccc1c23,5%,-9%
CCN(CC)S(=O)(=O)c1ccc(NC(=O)CN(c2ccccc2)S(=O)(=O)N(C)C)cc1,-19%,24%
Cc1cc(C)c(C(=O)COC(=O)c2ccc(N3CCCC3=O)cc2)c(C)c1,-7%,-5%
COc1cccc(CNC(=O)c2cccc(N3CCCN(Cc4ccc(C)cc4)C3=O)c2)c1,?,?
N=C(N)SCc1ccc(F)cc1,26%,33%
CCSc1nc2n(n1)C(c1ccc(CC)cc1)C(C(=O)Nc1ccccc1OC)=C(C)N2 (stereo not given),-10%,?
COc1ccccc1-c1cc(C(=O)O)c2ccc(C)c(C)c2n1,0%,1%
CC(C)(C)CC(=O)Nc1ccc(C(N)=O)c(Cl)c1,26%,7%
O=C(NNC(=O)C1CCC(c2ccccc2)CC1)c1ccc(Br)cc1 (stereo not given),8%,3%
Cc1ccc(NC(=O)Cn2c(C)nc3c(sc4ccccc43)c2=O)cc1F,-6%,-12%
Cc1oc(-c2ccccc2)nc1CC(=O)NC1CCCCNC1=O (stereo not given),0%,-8%
Cc1ccc(CNC(=O)c2sc3nc(C)cc(C)c3c2-n2cccc2)cc1,-6%,-7%
CCOCCn1c(NCCOC)nc2c1c(=O)[nH]c(=O)n2C,-2%,-5%

# Next entries:
SMILES,2A firefly,2A Renilla
NC(=O)CSc1nc2c(c(=O)n1-c1ccccc1)C1(CCCCC1)Cc1ccccc1-2,?,?
CCOc1ccc2nc(N(Cc3cccnc3)C(C)=O)sc2c1,11%,14%
COc1cccc(C2c3c(-c4ccccc4O)n[nH]c3C(=O)N2CCc2ccc(OC)c(OC)c2)c1 (stereo not given),0%,-3%
Cc1cccc(CSC2=NS(=O)(=O)c3ccccc3N2Cc2ccccc2)c1,-10%,33%[activator]
FC(F)(F)c1cnc(SCc2cccc3ccccc23)c(Cl)c1,7%,1%
CCCOc1ccc(Oc2nc(NC)nc(N3CCOCC3)n2)nn1,15%,8%
COc1cccc(Cn2c(-c3nonc3NC(C)=O)nc3ccccc32)c1,31%[activator],119%[activator]
CCOc1ccc(C2CC(=O)N(c3cccc(F)c3)C3=C2C(=O)OC3)cc1 (stereo not given),-10%,-10%
Nc1ccc(C(=O)O)cc1CCCC(=O)O,30%,18%
CCCc1nc2ccccc2c(C(=O)OCC(=O)NC)c1CC,-3%,-2%
CN(C)N1C(=O)CC(c2ccc(F)cc2)C2=C1CC(C)(C)CC2=O (stereo not given),-7%,15%

# Some of the compounds tested; count on the stated rates, not on these rows.
